NPR1 antag: human Npr1 receptor antagonism; P16066; HEK293 hNpr1 GloSensor cGMP, ANP-stimulated luminescence; Potency, µM (series often up to 46.3 µM), without a hit: at the highest dose activity change, negative = inhibition, most hits filed as inhibitors; 76,000 tested, 1.6% active; active = well fitted inhibition curve with a large enough effect; inconclusive = small, poorly fitted or top-dose-only effect; inactive = no such curve, though single readings can be large or run the other way;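 further: nearly all actives have a fitted effect of over 60% in size; nearly all hits also lower the signal before the agonist is added; a reference antagonist and vehicle were the controls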
Target sequence (P16066 whole entry, looked up): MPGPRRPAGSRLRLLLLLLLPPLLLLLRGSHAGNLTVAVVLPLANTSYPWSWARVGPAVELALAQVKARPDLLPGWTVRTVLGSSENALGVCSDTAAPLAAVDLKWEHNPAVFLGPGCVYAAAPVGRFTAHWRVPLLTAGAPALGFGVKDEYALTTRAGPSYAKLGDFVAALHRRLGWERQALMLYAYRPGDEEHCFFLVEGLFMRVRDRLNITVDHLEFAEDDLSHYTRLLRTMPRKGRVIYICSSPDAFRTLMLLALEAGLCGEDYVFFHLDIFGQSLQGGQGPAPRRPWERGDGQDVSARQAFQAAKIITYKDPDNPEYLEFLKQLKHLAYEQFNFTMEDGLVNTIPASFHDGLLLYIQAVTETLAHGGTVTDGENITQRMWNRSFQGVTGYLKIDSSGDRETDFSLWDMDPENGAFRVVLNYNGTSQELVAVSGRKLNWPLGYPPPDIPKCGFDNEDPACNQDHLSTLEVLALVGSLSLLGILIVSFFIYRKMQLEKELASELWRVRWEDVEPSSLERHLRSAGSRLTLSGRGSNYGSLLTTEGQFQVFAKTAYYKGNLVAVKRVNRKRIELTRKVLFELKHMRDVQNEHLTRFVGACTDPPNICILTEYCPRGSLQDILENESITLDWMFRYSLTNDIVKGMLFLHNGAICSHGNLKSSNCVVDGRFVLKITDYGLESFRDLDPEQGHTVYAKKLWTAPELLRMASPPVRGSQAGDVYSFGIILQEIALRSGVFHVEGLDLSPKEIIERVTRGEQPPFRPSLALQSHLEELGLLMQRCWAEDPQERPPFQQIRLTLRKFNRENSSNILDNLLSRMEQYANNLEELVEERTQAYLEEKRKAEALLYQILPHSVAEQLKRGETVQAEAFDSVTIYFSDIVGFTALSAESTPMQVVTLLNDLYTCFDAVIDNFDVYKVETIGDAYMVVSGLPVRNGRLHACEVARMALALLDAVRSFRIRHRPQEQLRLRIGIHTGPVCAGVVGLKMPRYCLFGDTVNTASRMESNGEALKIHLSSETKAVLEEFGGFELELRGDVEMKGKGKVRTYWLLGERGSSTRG
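Compound pre-incubated 30 min at room temperature on GloSensor-loaded HEK293 cells stably carrying hNpr1 and the pGS-40F cGMP biosensor. Stimulation uses hNppA at 0.1 nM final; luminescence is taken at baseline and 20 min post-agonist.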
An asterisk follows results filed as active; ? = inconclusive; [ ] = remark or other dose. On the % scale 0 is the no-effect control and ±100 the full control effect; potency means the concentration at half of the fitted maximal effect. Only part of the results is shown. The share of hits here may be higher or lower than overall.

mol,NPR1 antag
COCCOC1CCN(C(=O)c2[nH]nc3c2COc2ccccc2-3)CC1,-25.5%
O=C(CC1CCOCC1)NCc1ccc(F)cc1F,4.5%
Cc1nn(-c2ccccc2)c(C)c1CC(=O)NC1CCCN(Cc2ccccc2F)C1 (stereo not drawn),2.2%
CN1CC2(CCN(Cc3cn[nH]c3-c3ccc(F)cc3)CC2)CC1C(=O)N1CCOCC1 (stereo not drawn),-7.7%
Cc1nonc1C1CCCN1C(=O)c1cn(Cc2ccccc2F)nn1 (stereo not drawn),1.6%
O=C(c1cc2n(n1)CC(c1ccc3c(c1)OCO3)OC2)N1CCCC1 (stereo not drawn),-0.3%
Cc1cccc(Cl)c1NC(=O)N1CCC2(CC1)C(C(=O)O)CC(=O)N2C (stereo not drawn),10.8%
O=C(c1ccc(F)c(F)c1)N1CCCN(c2cc(-c3ccc(F)cc3)[nH]n2)CC1,-14.5%
CCCCN1C(=O)NC(c2ccc(OCC)cc2)C2=C1COC2=O (stereo not drawn),7.7%
O=C(C[C@@H]1C[C@H]2O[C@H](CNCc3ccncc3F)[C@@H](O)[C@H]2O1)N1CCOCC1,0.2%[70.6 µM]

Next part
mol,NPR1 antag
COc1ccccc1OCCNC(=O)[C@]12CCCC[C@@H]1N(C)C(=O)CC2,-9.5%
O=C(NCC1(COc2ccc(C(F)(F)F)cn2)C[C@@H](O)[C@@H](O)C1)c1cnccn1 (stereo partly drawn),7.6%
O=C(Nc1ccc(Oc2ccccc2)cc1)O[C@@H]1CO[C@H]2[C@@H]1OC[C@@H]2NS(=O)(=O)c1ccc(Cl)cc1,?
COCCOc1ccc2c(n1)CCN(C(=O)c1cc(OC)cc(OC)c1)C2,-3.6%
O=C1NCCCCCN(C(=O)c2nccc3ccccc23)[C@H]2CCC[C@@H]12,7.2%
COc1ccc2[nH]c3c(c2c1)CCNC31CCN(C(=O)c2ccsc2)CC1,2.3%
Cc1cccc(=O)n1CCC(=O)NCc1cc2n(n1)CCN(C(=O)N(C)C)C2,4.4%
O=C(NC1CCN(c2cc(-c3cccs3)[nH]n2)C1)c1ccc2[nH]ccc2c1 (stereo not drawn),-2.3%
COc1ccccc1CNC(=O)C[C@@H]1[C@H](O)CCC2[C@](C)(CO)[C@H](OC(=O)NC(C)C)CC[C@]21C (stereo partly drawn),3.7%
Cc1ncsc1CN1CCCCCCNC(=O)CC1c1ccccc1 (stereo not drawn),-16.0%

Further results follow:
mol,NPR1 antag
O=C(O)c1ccc(CN[C@@H]2CO[C@H](CNC(=O)c3ccccc3)[C@H]2O)cc1,3.2%[70.6 µM]
O=C(NCC1CC1)[C@H]1CN(Cc2ccccc2)C[C@H]1C(=O)O,1.4%
c1coc(CN2CC(Oc3ccc(-c4noc(-c5ccncc5)n4)cc3)C2)c1,11.2µM*
CC(C)CCN1CCC(N2CCN(C(=O)C3CC3)CC2)C1=O (stereo not drawn),3.9%
CCc1noc(-c2cn(C3CCN(C(=O)c4ccccc4)C3)nn2)n1 (stereo not drawn),2.2%
COc1ccc(-c2noc(-c3cccn3CC(=O)N3CCN(c4ccccc4F)CC3)n2)cc1F,-1.9%
O=C(CC1NC(=O)NC1=O)NCc1cccnc1Oc1ccccc1F (stereo not drawn),3.5%
CC(C)CCN1CCC(N2CCN(C(=O)c3ccc(Br)o3)CC2)C1=O (stereo not drawn),4.8%
O=C(C1CC1)N1CCCC(Nc2ccc(F)c(F)c2)C1 (stereo not drawn),-5.7%
CN(Cc1ccccc1)C1CCOC2(CCN(C(=O)NCCc3ccccc3)CC2)C1 (stereo not drawn),5.8%

(cont.)
mol,NPR1 antag
Cc1cc(C)c(CNC(=O)c2nc(-c3cccnc3)cc3c2ccn3C(C)C)c(=O)[nH]1,-4.1%[70.6 µM]
CCN1CC2(CCN(C(=O)c3ccc4c(c3)ncn4CCO)CC2)OC1=O,-9.2%
CC(=O)N1CCN(C(=O)c2cc3ccccc3[nH]c2=O)CC(O)C1 (stereo not drawn),3.8%
COc1ccc(-c2ccnc3nc(C(C)C)nn23)cc1OC,5.7%
O=C1CCC(C(=O)N(CC2CCN(Cc3ccccc3F)CC2)CC2CCCO2)=NN1 (stereo not drawn),2.0%
COCCc1noc(-c2ccccc2OC2CN(C(=O)c3cnc(C)cn3)C2)n1,-3.1%
C=CCN(CCSc1ccccc1)C(=O)c1cnc(NCC)nc1,-1.5%
COCCNC(=O)[C@@H]1CCC[C@@H](NCC2CC2)CN(C)C(=O)C1,10.2%[70.6 µM]
CC(C)N1C(=O)C2(CCCC2)C1C(=O)NCc1nc2ccccc2n1C (stereo not drawn),-1.4%
N#Cc1ccccc1CN1CCNc2nc(CNc3ccc(F)cc3)n(Cc3ccccc3)c2C1=O,-17.5%

Later entries
mol,NPR1 antag
CCCn1cc(-c2ccnc(NC3CCN(Cc4ccccn4)CC3)n2)c(C)n1,-5.7%
CN(Cc1ccccc1)C1CCOC2(CCN(C(=O)c3ccsc3)CC2)C1 (stereo not drawn),6.8%
Cc1nc(C)c(C(=O)N2CCC(c3noc(-c4ccccn4)n3)C2)s1 (stereo not drawn),1.1%
Cc1cn2nnc(C(=O)N3CCC(C(=O)NCc4ccccc4)CC3)c2c(=O)[nH]1,7.3%
COc1ccc(-c2noc(C(=O)N(C)C)c2[C@H](C)O)cc1,-2.1%[70.6 µM]
COCCc1noc([C@@H]2CC(F)(F)CN2C(=O)Cn2cc(C)cn2)n1,-1.3%
Cc1c(Cl)cccc1NC(=O)Nc1cccc(-c2nnc3n2CCCC3)c1,0.4%
COCCn1ncc(N2CCC(C(=O)NCCCN3CCc4ccccc4C3)C2)cc1=O (stereo not drawn),11.4%
COc1ccc2cc1Nc1ccc(cc1)C[C@H](NCc1cccc(O)c1)C(=O)N(C)[C@@H](C(=O)Nc1ccccc1)C2,-29.9%
O=C1OCC2(CCN(Cc3cccc(OC(F)(F)F)c3)C2)N1c1ccncc1 (stereo not drawn),6.7%[70.6 µM]

(further entries)
mol,NPR1 antag
O=C(NCc1nnc2cc(-c3nc(C4CC4)no3)ccn12)c1cccnc1,-1.3%
CCN(CC)C(=O)c1cc2c(s1)CCC(C(=O)Nc1ccc(OC)c(F)c1)C2 (stereo not drawn),12.6µM*
CCc1cccc(C)c1NC(=O)Cn1ccn2nc(-c3ccc(F)cc3)c(CO)c2c1=O,6.6%
CCn1c2c(c(=O)n1-c1ccccc1)CCN(C(=O)COc1ccccc1)C2,-0.1%[70.6 µM]
CN1C(=O)Cc2ccccc2C1C(=O)N1CCN(c2ccc(Cl)cc2)CC1 (stereo not drawn),-23.5%
Cc1noc(C)c1[S+](=O)([O-])N1CCCC(c2nn(-c3cccc(Cl)c3)c(=O)[nH]2)C1 (stereo not drawn),-3.8%
Cc1c(CN2CCCC23CCN(c2ccc(C(F)(F)F)cn2)CC3)cc(C#N)n1C,-12.0%
Cn1nccc1C(=O)N1CCCC(Cc2nc(C3CCOCC3)no2)C1 (stereo not drawn),8.0%
CCOCCCNC(=O)N1CCC(OC2CCN(Cc3ccccc3)CC2)CC1,3.2%
O=C(Nc1cccnc1)c1nc2c(o1)CCN(CCCc1ccccc1)CC2,-2.7%[70.6 µM]

5 compounds picked at random from the list so far:
mol,NPR1 antag
O=C(NCc1nnc2cc(-c3nc(C4CC4)no3)ccn12)c1cccnc1,-1.3%
O=C(Nc1cccnc1)c1nc2c(o1)CCN(CCCc1ccccc1)CC2,-2.7%[70.6 µM]
CCN(CC)C(=O)c1cc2c(s1)CCC(C(=O)Nc1ccc(OC)c(F)c1)C2 (stereo not drawn),12.6µM*
Cc1noc(C)c1[S+](=O)([O-])N1CCCC(c2nn(-c3cccc(Cl)c3)c(=O)[nH]2)C1 (stereo not drawn),-3.8%
CCc1cccc(C)c1NC(=O)Cn1ccn2nc(-c3ccc(F)cc3)c(CO)c2c1=O,6.6%

Continuation:
mol,NPR1 antag
COc1cccc(CN2CCCC(c3nc(-c4cccnc4)no3)CCNC(=O)CC2)n1 (stereo not drawn),5.2%
O=C1CCN(S(=O)(=O)c2ccccc2)CCCN(C(=O)C2CCCC2)CCN1,2.9%
Cc1noc(C)c1CC(=O)N[C@@H]1CN(Cc2cccnc2)C[C@H]1CN(C)C,10.9%
O=C1CC(c2ccccc2)N(C(=O)C2CC2)CCCN(C(=O)c2c[nH]c3ccccc23)CCN1 (stereo not drawn),5.7%
NC(=O)Cc1c[nH]c2ncc(-c3ccc(F)c(Cl)c3)cc12,-12.9%[70.6 µM]
COc1ccc(C(=O)N2CC[C@@H](CC(=O)O)[C@@H](CCN3C[C@@H]4C[C@H](C3)c3cccc(=O)n3C4)C2)cc1,1.6%
O=C(NCc1cccc(F)c1)c1cccnc1N1CC2CC(C1)[C@H]1CCCC(=O)N1C2 (stereo partly drawn),-0.1%
O=C(Cc1c[nH]c2ncc(-c3ccc4c(c3)OCO4)cc12)N1CCOCC1,?
CS(=O)(=O)N1CCCN(Cc2cn[nH]c2-c2ccccc2)CCNC(=O)CC1c1ccccc1 (stereo not drawn),-2.1%
COC1C(=O)N(CC2CC2)C12CCN(C(=O)Cc1c[nH]c3ccccc13)CC2 (stereo not drawn),-9.7%

Remaining list, next part
mol,NPR1 antag
CCC(=O)N1CCCC(Cc2nncn2-c2ccccc2)C1 (stereo not drawn),-2.3%
CCOC(=O)C1=CN(CC(=O)Nc2cccc(C(C)C)c2)S(=O)(=O)N=C1C,-6.1%
O=C(NC1CC1)c1nc(-c2ccccc2)c2ccccn12,3.6%[70.6 µM]
N#Cc1cccc(CN2CCc3nc(N4CCc5ccccc5C4)[nH]c(=O)c3CC2)c1,-18.7%
COC[C@H]1C[C@@H](NC(=O)c2ccc(C#N)cc2)[C@H](O)[C@@H]1O,-3.8%[70.6 µM]
CCc1noc(-c2cn(C3CCN(C(=O)c4cc(Cl)ccc4OC)C3)nn2)n1 (stereo not drawn),-11.2%
N#Cc1cccc(NC(=S)N[C@H]2CO[C@H]3[C@@H]2OC[C@@H]3n2nnnc2Oc2ccccc2)c1,-15.1%
Cc1ccncc1C(=O)N1CCC2(CC1)NCCc1c2[nH]c2ccccc12,-10.9%
CCOc1ncccc1CNC(=O)[C@H]1CNC[C@@H](C(=O)N2CCOCC2)C1,2.5%
COCC(=O)N1CCN(C(=O)C(=O)c2cccn2C)[C@H]2CS(=O)(=O)C[C@H]21,-2.2%

Later entries
mol,NPR1 antag
CN(Cc1cccc(C(F)(F)F)c1)C(=O)C(C)(C)C,17.2%[70.6 µM]
COc1ccccc1CN1CCC2(CC1)C(=O)NCN2Cc1ccc(Cl)cc1,-5.8%
Cc1cc(Cn2cc3c4c(cccc42)[C@H](CC(C)C)N[C@H](C(=O)NCc2ccco2)C3)no1,-2.8%
COc1ccc(CCNC(=O)c2noc(-c3ccc(C)cc3)n2)cc1OC,?
CCCS(=O)(=O)N1CCC(c2noc(-c3ccccc3)n2)C1 (stereo not drawn),3.7%
CCC(C)NC(=O)C(NC(=O)c1ccccc1F)C1CCN(C(=O)c2ccc(OC)cc2)CC1 (stereo not drawn),0.7%
O=C(O)C1c2nc[nH]c2CCN1C(=O)CCCn1ccnc1 (stereo not drawn),2.2%
Cc1nc2cc(OCc3nc(C(=O)N(C)CC4(CO)CCC4)co3)ccc2s1,?
CCNC(=O)[C@@H]1C[C@H](NC(=O)c2ccco2)CN1C(=O)Cn1nccc1C,6.6%
O=C(N[C@H]1CCN2C(=O)[C@@H](Cc3ccccc3)NC(=O)[C@H]12)c1cnccn1,2.9%[70.6 µM]

Further records.
mol,NPR1 antag
O=C(C1=NO[C@@H]2CN(Cc3ccsc3)C[C@H]12)N1CCOCC1,5.2%[70.6 µM]
COCCOC1CN(C2CCN(C(=O)c3cccc(C)c3)CC2)C12CCCCC2 (stereo not drawn),1.1%
Cc1noc(-c2ccc3c(c2)OCO3)c1C(=O)NCCSCc1ccccc1,-2.7%
COCCc1noc(C2CN(C(=O)Nc3ccc(C)c(C)c3)C2)n1,2.6%
O=C1[C@H]2CN(Cc3ccc(F)c(Cl)c3)C[C@H]2C(=O)N1Cc1ccc2c(c1)OCO2,-18.4%
COc1ccc(CN2C(=O)COC[C@H]2C(=O)NCc2ccc(F)cc2F)cc1OC,7.9%
O=C(Nc1ccc(F)c(Cl)c1)c1cnc(-c2ccccc2)nc1-c1ccncc1,?
CN1CCC(O)(C(=O)N2C[C@@H](C(=O)O)[C@H](c3ccc(F)cc3)C2)CC1,5.5%
CC1=NS(=O)(=O)N(C)C=C1C(=O)OCc1nc(-c2cccc(Br)c2)no1,?
O=C1CCN(S(=O)(=O)c2ccccc2)CCCN(C(=O)c2ccoc2)CCN1,-9.2%

The list continues:
mol,NPR1 antag
Cn1ccnc1CN1C[C@@H](F)[C@@H](OCc2nc3ccc(C(F)(F)F)cc3[nH]2)C1,-0.8%[70.6 µM]
O=C([C@@H]1C[C@H](Oc2ccccc2)CN1C(=O)Cc1cccc(F)c1)N1CCOCC1,-0.1%
O=C(NCCN1CCCCC1)C1(CCO)CC12CCOCC2 (stereo not drawn),-1.3%
COc1ccc(CN2CCN(CCC=C(C)C)CC2CCO)cc1C (stereo not drawn),-0.1%
O=C(O)C1CN(C(=O)N2CCOCC2)CCN(C2CCOCC2)C1 (stereo not drawn),21.6%
Cc1ccc(-c2cc(N3CCC(CNC(=O)c4ccc5nc[nH]c5c4)CC3)n[nH]2)cc1,-24.7%
CN(C)C[C@@H]1CN(C)C[C@H]1NC(=O)Cc1ccc(Cl)cc1,-0.7%
O[C@@H]1C[C@@H](c2nc(-c3ccncc3)no2)N(Cc2ccccc2)C1,8.1%[70.6 µM]

Screens deposited in PubChem by National Center for Advancing Translational Sciences (NCATS).
